Assay outcomes from PubChem BioAssay.
Bm FixLJ act – activators of Burkholderia fixLJ two-component system, primary screen, B. multivorans, GFP reporter. B. multivorans fixK-promoter GFP reporter, 18 h; hits give high values. z-score (no concentration beside the values). 29,000 compounds, 0.3% hits;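 active = replicate mean overnight rise in green fluorescent reporter signal, 3 or more SD over negative controls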;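 also: score is relative to vehicle wells of the plate; 300 nL library stock went into each well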
* = called active by the depositor; & = joins results of further samples. An excerpt; count on the stated rates, not on these rows.

SMILES	Bm FixLJ act
COc1ccc(Nc2c(-c3ccco3)nc3cccc(C)n23)cc1	-1.8
COCCN1C(=O)c2oc3ccc(C)cc3c(=O)c2C1c1ccc(C(=O)OC)cc1 (stereo not given)	-0.28
CNC(=O)c1ccc(S(=O)(=O)NC(C)C(F)(F)F)cc1 (stereo not given)	-0.42
CCOC(=O)c1cccc(NC(=O)Cn2ncc3c(=O)oc4ccccc4c32)c1	0.01
CCOc1ccc(C(=O)Nc2cccc(NC(=O)c3ccc(C(C)(C)C)cc3)c2)cc1Br	1.8
O=C(CCS(=O)(=O)c1cccc2nonc12)Nc1cccc(F)c1	0.42
CCOc1ccc(Nc2oc(/C=C/c3cc(OC)c(OC)c(OC)c3)nc2C#N)cc1	0
CNC1CCN(Cc2nc(-c3ccc(OC)c(C)c3C)oc2C)CC1	-1.6
Cc1ccc(Cl)cc1N1CCN(CCCNC(=O)c2nnc(Cc3cccc(Cl)c3)o2)CC1	-0.13
COCCNC(=O)CCCn1c(SCc2ccccc2C)nc2c(sc3ccccc32)c1=O	0.35
COc1ccc(OC)c(S(=O)(=O)N2Cc3ccccc3CC2C(=O)Nc2ccc(C)cc2C)c1 (stereo not given)	-0.37
COc1ccccc1CNC(=O)c1cc2c(=O)oc3ccc(C)cc3c2s1	-0.19
CCn1c(C(=O)NCc2ccc(C)cc2)cc2sc(Cl)cc21	1.2
O=c1cc(COc2cccc(C(F)(F)F)c2)nc2sc3c(n12)CCCC3	-0.01
CC(C)c1nc2sc3c(N4CCCCC4)ncnc3c2c2c1CCCC2	-0.2
CCc1ccccc1NC(=O)c1cc(-c2ccc(OC)cc2)on1	-3.1
CCOc1cc(CNc2ccc(O)cc2)ccc1OCc1ccc(Cl)cc1	0.35
CCOc1cc(CNc2ccc(C(=O)O)cc2)ccc1OCc1ccccc1	-1.5
COc1ccc(C(=O)Nc2cccc(OCc3cc(=O)n4c5c(sc4n3)CCCC5)c2)cc1OC	-1.5
CCOC(=O)c1ccccc1NC(=O)COc1cc(=O)n(CC)c2ccccc12	-0.64
CCCC(C)NC(=O)c1cc(COc2ccccc2OC)[nH]n1 (stereo not given)	-3.1
Cc1ccc(C2C=C(c3ccccc3)Nc3nc(NS(=O)(=O)c4ccccc4)nn32)cc1 (stereo not given)	0.92
CN(Cc1nccn1Cc1ccccc1)C(=O)Cc1cccnc1	-2.5
Cc1cccc(OC2CCN(C(=O)c3ccnc(-n4cnnc4)c3)CC2)c1	-1.5
O=C(c1ccco1)N1CC(c2cccc(O)c2)C2C1C1CCN2CC1 (stereo not given)	0.74

Continued; it opens with the 4 that closed the last part.
SMILES	Bm FixLJ act
Cc1ccc(C2C=C(c3ccccc3)Nc3nc(NS(=O)(=O)c4ccccc4)nn32)cc1 (stereo not given)	0.92
CN(Cc1nccn1Cc1ccccc1)C(=O)Cc1cccnc1	-2.5
Cc1cccc(OC2CCN(C(=O)c3ccnc(-n4cnnc4)c3)CC2)c1	-1.5
O=C(c1ccco1)N1CC(c2cccc(O)c2)C2C1C1CCN2CC1 (stereo not given)	0.74
CC1CCc2c(sc3nc(-c4cc5ccccc5oc4=O)nc(Cl)c23)C1 (stereo not given)	-6.8
CCOC(=O)c1ccccc1NC(=O)CN1C(=O)CC(c2ccccc2)Sc2ccccc21 (stereo not given)	0.49
CCc1ccc(NC(=O)C2CCN(c3nnc(-n4c(C)ccc4C)s3)CC2)cc1	-3
Cc1ccc2oc(C(=O)Nc3ccc(S(=O)(=O)N(C)c4ccccc4)cc3)cc(=O)c2c1	-0.28
Cc1ccc(-c2nc(-c3cccs3)c(-c3cccs3)[nH]2)cc1	-1.3
Cc1c(CCC(=O)NCc2cccc(Cl)c2)c(=O)oc2c(C)c(O)ccc12	-2.5
CCn1c(=O)c2cc(C(=O)N(C)c3cc(C)ccc3C)sc2c2ccccc21	0.85
COc1ccccc1N(CC(=O)Nc1ccccc1F)S(C)(=O)=O	-0.24
CCOc1ccccc1NC(=O)CSc1nc2c(oc3ccccc32)c(=O)n1C(C)C	-1.1
Cc1noc(-c2ccc(S(=O)(=O)NCC(CO)Cc3ccco3)o2)c1C (stereo not given)	0.14
Cc1ccsc1-c1nccn1CCc1nc(-c2cccnc2)n[nH]1	-0.5
CCc1ccccc1NC(=O)Cn1nnc2sc3c(c2c1=O)CCC(C(C)(C)C)C3 (stereo not given)	-0.92
Cc1ccc(S(=O)(=O)c2nc(-c3cccs3)oc2SCC(=O)Nc2cc(C)cc(C)c2)cc1	-1.5
Cc1ccc(-c2cn(-c3ccc(Cl)cc3)c(S(=O)(=O)CC(=O)Nc3ccccc3)n2)cc1	1.2
COc1ccc(N2CCN(CCCNC(=O)c3ccc4nc(N5CCCCC5)sc4c3)CC2)cc1	-1.3
COC(=O)CCc1sc(Nc2ccc(OC)cc2)nc1-c1ccc(OC)cc1	-1.1
NC[C@H]1O[C@H](O[C@H]2[C@H](O)[C@@H](O[C@H]3O[C@H](CO)[C@@H](O)[C@H](N)[C@H]3O)[C@H](N)C[C@@H]2N)[C@H](N)C[C@@H]1O	-1.8&-1.1
COC(=O)c1cc2sc(C)cc2n1Cc1nc(-c2ccc(C)cc2)oc1C	-0.01
O=C(CCCCn1c(=O)c2ccccc2n(CC(=O)Nc2ccc(F)cc2F)c1=O)NCc1ccccc1Cl	0.94
COP(=S)(OC)Oc1ccc(Sc2ccc(OP(=S)(OC)OC)cc2)cc1	0.41
COc1cc(NC(=O)c2cccc(F)c2)ccc1NC(=O)c1cc2ccccc2o1	-1.3
CCc1ccc(-n2nc(CO)c(C(=O)NCC(c3ccccc3)c3ccccc3)n2)cc1	-0.88
COc1cc(-c2noc(CN3CCN(c4cccc(Cl)c4)CC3)n2)cc(OC)c1OC	-0.78
CCS(=O)(=O)c1ncc(Cl)c(C(=O)N(Cc2ccccc2)c2ccc(OC)cc2)n1	-1.1
Cc1cccc(NC(=O)c2nnn(CC(=O)Nc3ccc(C(C)C)cc3)c2N)c1C	-0.99
CCCOc1ccc(CN(C(=O)c2cc(=O)c3ccc(C)cc3o2)C2CCS(=O)(=O)C2)cc1 (stereo not given)	-2.5
O=S(=O)(Nc1ccc(F)c(Cl)c1)c1ccc(Br)s1	-0.24
CCc1ccc(OCC(=O)Nc2cc3oc4ccccc4c3cc2OC)c(Br)c1	-1.9
O=C(Nc1cccc(F)c1)C1CCN(S(=O)(=O)c2cccc3nsnc23)CC1	-1.2
CN(Cc1ccc2nonc2c1)Cc1cc2n(n1)CCN(S(C)(=O)=O)C2	0.08
COC(=O)c1ccccc1NC(=O)Cn1c(=O)n(CCCC(=O)NCc2ccccc2OC)c(=O)c2ccccc21	0.87
COc1ccc(C(=O)Nc2ccnn2C2CCN(C(C)=O)CC2)cc1	0.41
CCc1ccc(C(=O)Nc2cccc(-c3nc4cc(C(C)C)ccc4o3)c2)cc1	-0.89
CC(=O)Nc1ccc(NC(=O)c2cc3sccc3n2Cc2ccc(Cl)cc2)cc1	0.72
CCc1noc(C)c1C(=O)Nc1onc(-c2ccccc2)c1C	1.6
CCN(CC)C(=O)Cn1c(=O)n(CCCCCC(=O)NCc2ccc3c(c2)OCO3)c(=O)c2sccc21	0.04
Cc1[nH]c2c(c1C(=O)N1CCN(Cc3ncn[nH]3)CC1)C(=O)CCC2	-0.19
O=C(Cn1c(=O)nc(-c2ccccc2)c2cc(Cl)ccc21)NCCCc1ccccc1	-0.34
O=c1[nH]cnc2c1ncn2[C@H]1CC[C@@H](CO)O1	-1.9
COc1ccc(C(=O)Nc2noc3ccccc23)cc1	-1.3
CCc1cc2c(cc3c(=O)n(CC(=O)N4CCN(c5cc(Cl)ccc5C)CC4)ncn32)s1	-0.27
O=C(CCCCn1c(=O)[nH]c2ccsc2c1=O)N1CCN(c2cccc(C(F)(F)F)c2)CC1	-0.56
Cc1ccc(-c2noc(CN(C3CCCCC3)S(=O)(=O)c3ccc(F)cc3)n2)cc1	-0.25
Cn1nnc(-c2ccc(C(=O)NCc3csc(N)n3)cc2)n1	0.56
CCOC(=O)N1CCC(NC(=O)c2ccc3c(c2)N(Cc2cccc(C)c2)C(=O)c2ccccc2S3(=O)=O)CC1	1.4
COc1ccccc1-c1noc(CSc2nnc(-c3ccccc3)n2-c2ccc(C)c(C)c2)n1	-3
CN1CC2(CCCN(Cc3noc(C(C)(C)C)n3)C2)OC1=O (stereo not given)	-4.2
Cc1ccc(C(C(=O)NC2CCCCC2)N(C)Cc2ccccc2)cc1 (stereo not given)	-2.5
Cc1ccc(Cl)cc1N1CCN(C(=O)c2cc3c(=O)oc4ccccc4c3s2)CC1	-0.53
Cc1ccc(NC(=O)Cn2c(=O)oc3cc(S(=O)(=O)NCc4ccccc4)ccc32)cc1	-1.6

By substructure, the entries above containing two or more sulfur atoms
SMILES	Bm FixLJ act
COCCNC(=O)CCCn1c(SCc2ccccc2C)nc2c(sc3ccccc32)c1=O	0.35
Cc1ccc(-c2nc(-c3cccs3)c(-c3cccs3)[nH]2)cc1	-1.3
Cc1ccc(S(=O)(=O)c2nc(-c3cccs3)oc2SCC(=O)Nc2cc(C)cc(C)c2)cc1	-1.5
COP(=S)(OC)Oc1ccc(Sc2ccc(OP(=S)(OC)OC)cc2)cc1	0.41
O=S(=O)(Nc1ccc(F)c(Cl)c1)c1ccc(Br)s1	-0.24
O=C(Nc1cccc(F)c1)C1CCN(S(=O)(=O)c2cccc3nsnc23)CC1	-1.2

Next entries:
SMILES	Bm FixLJ act
CCOC(=O)c1cc2c(=O)n3ccccc3nc2n(Cc2ccco2)c1=NC(=O)c1ccc(OCC)cc1	-0.06
O=C(Cn1cccc1C(=O)c1ccccc1)NCc1ccc(F)cc1	1
COc1cc(C(=O)n2nc(C)c(Sc3ccc(Cl)cc3)c2C)cc(OC)c1OC	-0.71
CCN(C(=O)Cn1c(=O)n(CCCS(=O)(=O)C2CCCCC2)c(=O)c2ccccc21)c1cccc(C)c1	-1.4
CCn1nc(C)c(C(=O)N2CC(CO)C(CN(C)C)C2)c1C (stereo not given)	0.55
Cc1c(-c2ccccc2)nc2c(Cl)cccc2c1C(=O)OCC(=O)c1ccc(F)cc1	-0.67
Cc1nn(C)c(C)c1CN(C)Cc1cc2n(n1)CCCNC2	-2.1
Cc1ccc(CCNC(=O)CCCn2c(=O)c3ccccc3n(CC(=O)Nc3cc(Cl)ccc3C)c2=O)cc1	0.26
CCc1c(C)sc(NC(=O)c2cc(-c3ccc(OC)cc3)on2)c1C#N	-1.6
Cc1ccc(CCC(=O)NC2COCC2Cc2ccncc2)cc1 (stereo not given)	-0.41
O=C(NCc1cn[nH]c1-c1ccc(Cl)cc1)c1cccc2c1OCCO2	-0.66
Cc1cc(C)c2c(CC(=O)Nc3ccc(F)cc3)coc2c1	-0.93
Brc1cccc(-c2nnc(CN3CCN(c4ccccn4)CC3)o2)c1	-0.9
COc1ccc(NC(=O)CSc2nc(-c3cccs3)cc(C(F)(F)F)n2)cc1Cl	-0.87
O=C1CCCN1CCCC(=O)N1CCC2(CC1)OCCc1c2[nH]c2ccccc12	0.12
Cc1ccc2oc3c(c(=O)c2c1)C(c1ccc(O)cc1)N(Cc1ccc2c(c1)OCO2)C3=O (stereo not given)	-1.1
Cc1ccc(Cl)cc1NC(=O)C(Cc1ccccc1)NS(=O)(=O)c1cccc2nsnc12 (stereo not given)	-1.1
COc1cc(S(=O)(=O)N2CCC(O)C(C(=O)O)C2)c(OC)cc1Cl (stereo not given)	-0.89
CCOc1ccc(N(Cc2ccccc2)C(=O)c2nc(SCC)ncc2Cl)cc1	2
CC(C)(C)CC(C)(C)c1ccc(OCCOCC[N+](C)(C)Cc2ccccc2)cc1	-2.5
CC(NC(=O)CN(C)S(=O)(=O)c1ccc2c(c1)c(=O)n(C)c(=O)n2C)c1ccccc1 (stereo not given)	-0.52
Cc1ccc(-c2noc(CCNc3ncc(F)c(N(C)C)n3)n2)cc1	0.39
CC1CCCCN1C(=O)Cn1ncc2c3ccccc3n(Cc3ccccc3F)c2c1=O (stereo not given)	-1.4
CCn1cc2nc(SCC(=O)Nc3ccccc3C(F)(F)F)n(Cc3ccc(C)cc3)c(=O)c2n1	-2.9
Cc1ncc2c(c1CNC(=O)CCn1nnc3ccccc31)CCNC2	-0.93
O=C(Cn1c(=O)n(-c2ccccc2)c(=O)c2c3c(sc21)CCCC3)Nc1ccc(F)cc1F	-1.8
COc1ccc(CCN2C(=O)c3oc4ccc(F)cc4c(=O)c3C2c2ccc(C(C)(C)C)cc2)cc1 (stereo not given)	-2.8
Cc1ccc(-c2nnc3c4ccccc4c(C)nn23)cc1NC(=O)c1ccccc1	-0.65
Cc1ccc(-c2nn3c(-c4ccccc4)nnc3c3ccccc23)cc1	-0.42
O=C(NC1CCCN(Cc2cccnc2)C1)c1cc(N2CCOCC2)no1 (stereo not given)	-0.9
COc1ccc(C)cc1NC(=O)CSc1nc2ccccc2nc1N1CCOCC1	-0.09
Cc1c(C(=O)NCCNC(=O)C(F)(F)F)sc2ccccc12	-0.84
C=C(C)COc1ccc(NC(=O)C2CC(=O)N(C)C2(C)C)cc1 (stereo not given)	-1.2
Cc1ccc(SCCNC(=O)N2CCCC2C(N)=O)cc1 (stereo not given)	-2.1
CCN(C(=O)C1CCN(S(=O)(=O)c2cc(Br)cc3c2N(C(C)=O)CC3)CC1)c1cccc(C)c1	-0.46
CCOC(=O)c1cnc2ccc(Br)cc2c1NCCN1CCOCC1	-0.45
Cn1ccnc1CN1CCC2(CC1)CN(C(=O)c1ccc(C#N)nc1)CCO2	0.25
Cc1nnc(SCCNS(=O)(=O)c2ccc3c(c2)CCC(=O)N3)s1	0.29
O=c1[nH]c2ccc(CNCc3ccc(CN4CCCCC4)s3)cc2[nH]1	-0.45
